Menin-MLL FL inh = qHTS Assay for Inhibitors Targeting the Menin-MLL Interaction in MLL Related Leukemias: Competition With Fluorescein Labeled MLL-derived Peptide | Fluorescence polarization, fluorescein-MLL peptide displacement from menin | FP activity change, % at 61.4 µM | 290,000 tested, under 10 active; inconclusive = falling polarisation curve, or a change in total fluorescence; inactive = total fluorescence flat and polarisation flat or rising; no compound was filed as active; the % refers to the polarisation; negative = inhibition;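 also: % of control where 0% means no effect; inhibitors lower the polarisation; unlabelled MLL peptide was the positive control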
ClpP mod = qHTS Assay for Activators of ClpP; ATP-dependent Clp protease proteolytic subunit (Bacillus subtilis (strain 168)), P80244; purified B. subtilis ClpP, FRET peptide cleavage, 20 min; Potency, µM (titrated, usually from 57.5 µM), inactives show at the highest dose activity change, negative = active; 340,000 compounds, 1.9% hits; AID 651965, 2013; active = well fitted falling curve with a large enough effect; inconclusive = small, poorly fitted or top-dose-only effect; inactive = no such curve, though single readings can be large or run the other way; also: potency is read from the fitted curve at half-maximal effect; the source files actives as falling curves though it sought activators and does not explain the sign; nearly all actives have a fitted effect of over 65% in size; many hits overshoot -100%
Target sequence (P80244 whole entry, looked up): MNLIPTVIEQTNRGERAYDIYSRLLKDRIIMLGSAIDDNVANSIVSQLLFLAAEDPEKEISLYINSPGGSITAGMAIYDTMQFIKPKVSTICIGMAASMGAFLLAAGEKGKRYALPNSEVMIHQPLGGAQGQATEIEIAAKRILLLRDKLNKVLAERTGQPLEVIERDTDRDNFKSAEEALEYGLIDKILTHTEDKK
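FRET quenching reversal measured ClpP activation: 10 microg/mL B. subtilis ClpP at pH 8 with the FRET-FV decapeptide, read at 430 nm after 320 nm excitation. The 20-min minus 0-min signal was scaled between DMSO/no-enzyme wells and ADEP (5.8 microM final).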
gsp agonist = qHTS for Agonist of gsp, the Etiologic Mutation Responsible for Fibrous Dysplasia/McCune-Albright Syndrome: qHTS; gsp mutant cells, cAMP HTRF, 30 min; control for the full effect not named in the record; Potency, µM (doses to about 76.9 µM), for the others: top-dose activation (cAMP increase), most hits filed as activators; 340,000 compounds, 0.13% hits; active = well fitted activation curve with a large enough effect; inconclusive = small, poorly fitted or top-dose-only effect, or another doubt; inactive = no such curve, though single readings can be large or run the other way; cell line not stated here;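 also: phosphodiesterase inhibitor Ro 20-1724 added with compounds to block cAMP breakdown; potency is read from the fitted curve at half-maximal effect; nearly all actives have a fitted effect of over 60% in size; about a fifth of the inactives were tested at one dose only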
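Cells stably selected in G418 were plated at 2000/well, grown 16-24 hr, then given compounds in DMSO with the PDE inhibitor […] (300 uM solution added) for 30 min at 37C; cAMP was read by HTRF.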
TRPML1 inh = qHTS for Inhibitors of the Human Mucolipin Transient Receptor Potential 1 (TRPML1); Mucolipin-1 (Homo sapiens), Q9GZU1; TRPML1-inducible cells, Ca2+ dye fluorescence, FDSS; stronger effect = lower value; inhibition of EC80 agonist-evoked calcium signal; activity change, negative = inhibition, % (concentration not given with the values); 390,000 compounds, 0.02% hits; AID 624415, 2012; in the data active means activity change below about -50%; inconclusive means about -30% to -50%; inactive means above about -30%;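 also: stimulus is agonist 54-4 at its EC80 concentration; % is scaled to controls: 0 for no effect and ±100 for the full control effect; the text of the record puts the active cut at -80%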
Target sequence (Q9GZU1 whole entry, looked up): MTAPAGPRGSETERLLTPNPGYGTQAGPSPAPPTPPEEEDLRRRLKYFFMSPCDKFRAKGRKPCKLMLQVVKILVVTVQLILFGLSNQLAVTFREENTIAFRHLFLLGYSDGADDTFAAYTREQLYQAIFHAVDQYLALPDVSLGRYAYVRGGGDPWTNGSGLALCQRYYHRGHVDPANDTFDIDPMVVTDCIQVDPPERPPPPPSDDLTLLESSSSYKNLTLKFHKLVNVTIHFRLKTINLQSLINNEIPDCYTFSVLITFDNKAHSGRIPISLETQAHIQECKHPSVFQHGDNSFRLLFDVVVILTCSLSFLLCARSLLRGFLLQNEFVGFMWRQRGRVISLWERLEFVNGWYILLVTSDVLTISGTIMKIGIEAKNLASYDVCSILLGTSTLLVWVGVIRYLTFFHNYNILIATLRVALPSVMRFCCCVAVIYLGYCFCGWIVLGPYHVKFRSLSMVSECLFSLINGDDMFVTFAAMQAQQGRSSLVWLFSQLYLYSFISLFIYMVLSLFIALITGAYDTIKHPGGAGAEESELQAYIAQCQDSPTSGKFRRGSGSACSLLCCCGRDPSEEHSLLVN
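TRPML1-DL cells, Tet-induced overnight (~16 h, 37 °C) at 1,500 cells/well, were loaded with Ca8 no-wash dye plus quencher for 45-90 min at room temperature. Compounds were pinned during FDSS kinetic reading; agonist 54-4 at EC80 (4 uM final) then added.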
gsp antagonist = qHTS for Antagonists of gsp, the Etiologic Mutation Responsible for Fibrous Dysplasia/McCune-Albright Syndrome: qHTS | gsp-mutant cells, cAMP HTRF, 30 min; control for the full effect not named in the record | Potency, µM (titrated, usually from 76.9 µM), for the others: top-dose activity change, negative = inhibition, most hits filed as inhibitors | 340,000 compounds, 0.4% hits | AID 624288, 2012; active = falling curve of any shape with a large fitted effect; inconclusive = falling curve, mostly with a smaller effect; inactive = flat or rising curve; cell line not stated here;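 also: intracellular cAMP measured with PDE inhibitor Ro 20-1724 present during compound exposure; potency is read from the fitted curve at half-maximal effect; % is scaled to controls: 0 for no effect and ±100 for the full control effect; nearly all actives have a fitted effect of over 65% in size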
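G418-selected cells were plated in DMEM/10% FBS for 16-24 h at 37C, then treated with compounds plus the PDE inhibitor […] (300 uM solution added) for 30 min at 37C. Intracellular cAMP was measured by HTRF after 30 min lysis at room temperature.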
TRPML1 agonist = qHTS for Agonists of the Human Mucolipin Transient Receptor Potential 1 (TRPML1); Mucolipin-1 (Homo sapiens), Q9GZU1; TRPML1-expressing cells, Ca2+ dye fluorescence, FDSS; host cell line not named in the record; reference of the full effect not given here; activation, % (concentration not given with the values); 410,000 compounds, 0.12% hits; in the data active = activation above about 50%; inconclusive = about 30% to 50%; inactive = below about 30%; also: 0% is about no effect; the text of the record puts the active cut at 80%
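In this qHTS format, compounds were pin-transferred onto Ca8-dye-loaded TRPML1-DL cells induced with Tet overnight, and intracellular Ca2+ fluorescence was recorded kinetically for 110 s after a 10 s baseline. A subsequent 4uM final 54-4 (EC80) addition followed by a second 110 s read served as the antagonist phase.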
* hit, by the source's call; ? = inconclusive; · = no result given; & = joins results of further samples; [ ] = another dose, or the depositor's remark.

SMILES	Menin-MLL FL inh	ClpP mod	gsp agonist	TRPML1 inh	gsp antagonist	TRPML1 agonist
CCOc1ccc(-c2cc(NC(=O)c3c(F)cccc3F)c(C(=O)OC)s2)cc1	·	-17.2%	·	22.8	·	-0.3
CC1(C)NC(=O)N(CC(=O)OCC(=O)Nc2sccc2C#N)C1=O	-15.2	1.6%	2.0%	-1.8	1.5%	0.3
CC(=O)Nc1ccc(S(=O)(=O)NCCCN2CCOCC2)cc1	0.5	·	15.6%[15.4 µM]	-4.0	11.3%	0.6
O=[N+]([O-])CC(c1ccccc1)P(=O)(c1ccccc1)c1ccccc1 (configuration not stated)	·	-2.7%	14.7%	-10.0	7.5%	2.3
CCOc1ccc2c(c1)C(N(CCN1CCOCC1)C(=O)Nc1ccc(OC)cc1OC)CC(C)(C)O2 (configuration not stated)	-0.8	1.2%	1.5%	13.9	-15.9%	-0.7
O=C(NCc1ccccn1)c1ccc(=O)oc1	3.2	-21.5%	4.5%	-7.8	14.0%	1.5
CCOC(=O)C(CCCP(=O)(c1ccccc1)c1ccccc1)(NC(C)=O)C(=O)OCC	4.5	·	22.5%	-0.1	7.0%	1.2
COC(=O)C(CC(C)C)NC(=O)c1cc(OC)c(OC)c(OC)c1 (configuration not stated)	1.5	-1.9%	-2.0%	6.9	8.8%	1.1
Cn1c(SCc2c(F)cccc2Cl)nc2c(c1=O)SCC2	-2.5	-1.2%	-17.1%[15.4 µM]	0.5	?	0.8
O=S1(=O)CCOC[C@H](Cc2ccccc2)N1Cc1ccccc1Br	·	-2.9%&-1.0%	-14.8%	23.3	-24.0%	2.3&-0.1
O=C(CN1CCN(Cc2ccccc2)CC1)c1ccc(Br)cc1	-20.6	0.2%	2.7%	11.5	-0.4%	2.8
Cc1ccnc(NS(=O)(=O)c2ccc(NC(=O)CCc3ccccc3)cc2)n1	-4.3	·	-13.6%	2.1	1.4%	0.5
COc1ccc(-c2nc3ncccn3c2Nc2ccc3c(c2)OCCO3)cc1	2.0	-0.4%	14.6%	17.6	-2.7%	0.0
CN(CC(=O)Nc1cccc(F)c1)C(=O)c1cc(-c2cccs2)nn1-c1ccccc1	·	-18.5%	18.2%	-15.5	?	2.3
c1ccc(C(c2cccs2)c2c[nH]c3ccccc23)cc1 (configuration not stated)	·	-1.4%	·	5.6	·	4.2
COc1ccccc1-c1noc(-c2ccc(NCc3ccco3)c([N+](=O)[O-])c2)n1	·	1.4%	·	1.4	·	-0.5
CCC(=O)Nc1c(-c2cccs2)c(=O)c2ccccc2n1C	1.8	-16.5%	0.6%	21.4	-2.5%	0.0
Cc1ccc(OCCSc2ncnc3nc[nH]c23)cc1	2.8	0.4%	?	-2.6	0.2%	0.2
COc1cccc(C(=O)Nc2ccc(Cl)c(-c3nc4ccccc4[nH]3)c2)c1	·	-19.6%	·	-20.9	·	5.0
O=[N+]([O-])c1ccc(COc2cccc(CN3CCOCC3)c2)cc1	·	1.6%	·	46.6	-1.8%	-0.8
Cc1ccc(N2C(=O)N(CC(=O)N3c4ccccc4CC3C)C(=O)C2C)cc1 (configuration not stated)	·	-0.7%	-14.0%	-1.0	10.3%	-0.2
O=C(Nc1nnc(-c2ccccc2)o1)c1cccc(S(=O)(=O)N2CCOCC2)c1	·	1.4%	-2.6%	-20.1	-11.0%	0.4
Cc1cccc2cc3c(N)c(C(=O)Nc4ccc(N5CCOCC5)cc4)sc3nc12	?	0.7%	0.2%	-9.0	?	2.4
O=C(NCc1ccco1)c1ccc2c(c1)N(Cc1cccc(Cl)c1)C(=O)c1ccccc1S2(=O)=O	·	-1.4%	·	23.5	·	0.7

For convenience, some entries already given.
SMILES	Menin-MLL FL inh	ClpP mod	gsp agonist	TRPML1 inh	gsp antagonist	TRPML1 agonist
O=C(Nc1nnc(-c2ccccc2)o1)c1cccc(S(=O)(=O)N2CCOCC2)c1	·	1.4%	-2.6%	-20.1	-11.0%	0.4
Cc1cccc2cc3c(N)c(C(=O)Nc4ccc(N5CCOCC5)cc4)sc3nc12	?	0.7%	0.2%	-9.0	?	2.4
O=C(NCc1ccco1)c1ccc2c(c1)N(Cc1cccc(Cl)c1)C(=O)c1ccccc1S2(=O)=O	·	-1.4%	·	23.5	·	0.7

(next part)
SMILES	Menin-MLL FL inh	ClpP mod	gsp agonist	TRPML1 inh	gsp antagonist	TRPML1 agonist
CCn1cc(S(=O)(=O)CC(=O)Nc2ccc(OC)cc2)c2ccccc21	0.1	-2.8%	?	-1.8	6.4%	-0.9
COC(=O)C1=C(C)NC(=O)C1(NC(=O)c1ccccc1C)C(F)(F)F (configuration not stated)	·	4.2%	·	-3.9	·	0.6
O=C(CN1C(=O)NC2(CCCc3ccccc32)C1=O)NC1CCCCC1 (configuration not stated)	·	-1.9%	-1.3%	0.7	7.9%	-0.4
CCCn1c(N)c(N(CCOC)C(=O)CSCC(=O)Nc2ccc(C)cc2)c(=O)[nH]c1=O	·	1.6%	?	-9.0	8.7%	-0.9
COc1ccc2c(c1)-c1nc(NC(=O)c3ccc(OC)c(Br)c3)sc1CC2	·	4.3%	·	-5.1	·	1.3
CCCc1nc2sc3c(c2c(=O)n1NC(=O)c1ccco1)CC(C)(C)OC3	1.4	·	-6.8%[15.4 µM]	27.9	-3.6%	1.8
Cc1ccc(-n2cccc2/C=C2\C(=N)N3N=C(C(C)C)SC3=NC2=O)cc1	3.2	-0.9%	1.1%	-13.3	?	0.7
COc1ccc(CN2C(=O)c3cccnc3C2=O)cc1S(=O)(=O)NCc1ccco1	-2.0	-0.2%	?	25.3	-5.4%	5.4
CCOc1ccc2nc(SCC(=O)NCC3CCCO3)sc2c1 (configuration not stated)	·	·	?	6.8	-9.8%	-1.2
CCN(CC)S(=O)(=O)c1ccc2nnn(OCC(=O)Nc3cccc(C#N)c3)c2c1	-0.2	1.0%	-4.7%	6.5	-19.8%	0.1
CCN(CC)CCN(C(=O)c1ccc2c(c1)CCCC2)c1nc2ccc(F)cc2s1	3.2	·	4.3%[15.4 µM]	-9.6	-8.1%	0.6
CCCN(CCC)CCNC(=O)c1cc2c(=O)n(C)c3ccccc3c2n1C	4.6	4.2%	7.7%	-0.6	7.8%	1.2
CNc1nc(Cl)nc2c1ncn2-c1ccccc1	·	1.0%	10.0%[15.4 µM]	1.8	-1.4%	0.0
CCN(CC)CCNC(=O)C1CCCN(c2nnc(C)c3c(C)n(-c4ccc(Cl)cc4)nc23)C1 (configuration not stated)	·	4.1%	·	7.3	·	2.6
O=C(c1cncc(Br)c1)N1CCCc2ccccc21	0.8	?	14.7%[15.4 µM]	-2.6	1.4%	-0.2
COc1cccc(C(=O)CC(=O)C(=O)Nc2cc(Cl)c(OC)cc2OC)c1	16.9	0.0%	-4.2%	5.2	-4.4%	-0.2
O=C(COc1ccccc1)Nc1ccc(C(=O)N2CCCC2)cc1	·	-4.1%	?	-14.3	-4.5%	-0.4
CS(=O)(=O)Nc1ccc(C2=NN(C(=O)c3ccccc3)C(c3cccs3)C2)cc1 (configuration not stated)	0.4	-5.4%	?	·	?	·
Clc1ccccc1Cc1noc(CN2CCN(Cc3ccccn3)CC2)n1	2.9	·	-8.3%[15.4 µM]	18.0	19.8%	-0.5
CCOC(=O)C1(CCOc2ccccc2)CCN(Cc2cc(OC)c(O)cc2Cl)CC1	-3.1	0.4%	7.4%	11.0	0.0%	-0.1
OC(CNCC1(N2CCCCC2)CCCCC1)COc1ccc(Cl)cc1Cl (configuration not stated)	0.7	·	-11.7%[15.4 µM]	-6.2	0.3%	2.7
O=c1/c(=C/c2cccc3ccccc23)sc2ncnn12	-1.0	-1.5%	-15.0%	-13.8	-7.2%	0.1
Cc1noc(C)c1/C=N/Nc1ccc2ccccc2n1	-1.6	·	4.7%[15.4 µM]	-29.6	13.3%	1.5
COc1cc(C(=O)NNC(=O)CCOc2ccccc2)cc(OC)c1OC	·	2.1%	?	-20.6	-4.1%	0.6
O=C(/C=C/c1ccc(F)cc1)N1CCN(S(=O)(=O)/C=C/c2ccccc2)CC1	0.7	·	6.3%[15.4 µM]	-2.4	·	3.7
CN(C)S(=O)(=O)c1cccc(NC(=O)CN2C(=O)NC(Cc3ccccc3)C2=O)c1 (configuration not stated)	·	-0.5%	8.9%	0.3	9.6%	-1.0
CN(C)S(=O)(=O)N1CCC(CO)(CCc2ccccc2)CC1	3.0	2.3%	-30.8%[inhibitor]	8.1	0.5%	-0.1
CCN1CCN(c2cc(C)c3cc(NC(=O)Cc4ccc(OC)c(OC)c4)ccc3n2)CC1	-1.5	5.2%	20.2%	-8.9	5.5%	0.4
OC(COc1ccc(OCC(O)CN2CCCCC2)cc1)CN1CCCCC1 (configuration not stated)	3.6	-1.3%	-9.0%	-12.2	8.8%	-0.8
Cc1c(NC(=O)Cc2ccc(F)cc2)cccc1-c1nc2cccnc2s1	·	-10.7%	·	17.6	·	0.2
CC12CCC=CC1C(c1ccc(/C=C/c3ccccc3)cc1F)N(Cc1ccccc1)C2=O (configuration not stated)	-5.3	·	·	77.5	·	1.1
Cc1ccc([C@H]2C[C@@H](n3cc(COC(=O)c4ccccc4)nn3)[C@H](O)CN2C(=O)c2cccs2)cc1	·	-2.0%	-80.7%	22.5	·	2.9
COc1cc(-c2noc(C)c2C#Cc2nccn2C)cc(OC)c1OC	-1.5	-2.6%&-7.5%	0.2%	14.9	2.3%	1.4&-1.0
CC(C)(c1cc(Cl)c(O)c(CN2CCOCC2)c1)c1cc(Cl)c(O)c(CN2CCOCC2)c1	·	·	1.1%	-0.9	-26.5%	-0.7
CCCOc1ccc(C2c3c(oc4ccccc4c3=O)C(=O)N2c2nc(C)c(C(=O)OCC)s2)cc1 (configuration not stated)	·	0.5%	·	3.3	·	-0.8
COc1ccc2[nH]c(=O)c(CN(C(=O)c3cccnc3)c3ccc(C)c(C)c3)cc2c1	-0.9	·	12.9%[15.4 µM]	-6.7	2.9%	-1.1
COCCNS(=O)(=O)c1cc(Br)ccc1OC	0.6	-0.6%	-17.8%	1.5	5.8%	0.9
CC(OC(=O)C1COc2ccccc2O1)C(=O)c1ccccc1 (configuration not stated)	·	0.6%	-29.7%	20.2	·	-0.7
COc1ccc(/C=N/NC(=O)CNC(=O)/C=C/c2ccco2)cc1OC	7.5	-7.4%	-6.9%[15.4 µM]	-0.2	4.7%	-0.1

Screening data as filed in PubChem.
